Compound activity as filed in PubChem BioAssay.
FGF22 binding – binders of recombinant human FGF22 by thermal shift; SYPRO orange fluorescence; percent of sucrose octasulfate shift, DMSO zero; hit rate 1.5% among 340,000; AID 651658; calls only at 9.99 µM; Q9HCT0;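 active means melting point raised past a set limit in the mean and every replicate; three in four hits are not shown here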
Target sequence (Q9HCT0 whole entry, looked up): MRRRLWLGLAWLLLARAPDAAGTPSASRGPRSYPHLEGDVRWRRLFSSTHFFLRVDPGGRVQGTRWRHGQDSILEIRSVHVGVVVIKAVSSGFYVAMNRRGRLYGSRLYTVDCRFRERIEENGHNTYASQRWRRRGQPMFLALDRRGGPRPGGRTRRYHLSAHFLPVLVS
E coli growth – inhibitors of Escherichia coli growth; hit rate 0.21% among 330,000; OD600 absorbance (test concentration not listed); OD600, 23 h; active compounds read low;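 active means OD600 absorbance below the run mean of sample wells minus 3.6 SD, in any replicate, cut at about 0.56 in these data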;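 further: stock transfer was 300 nL into about 60 µL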
Beta cell apopt – blocks beta cell apoptosis | INS-1E cytokine-induced death, ATP luminescence, 48 h; percent of positive-control rescue, neutral wells zero | hit rate 0.8% among 300,000 | protection from apoptosis, % (no concentration beside the values);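 active means all replicates at 75% or more, or half of them and the mean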;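 further: 0% = cytokine-treated negative control wells and 100% = positive control rescue; higher means more ATP so stronger rescue from cytokine killing; wells of about 40 µL received 100 nL stock; the first replicate is given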
A1 inh – inhibitors of the anti-apoptotic protein A1, read as caspase activation; MEF A1-2A-BIM cells, Caspase-Glo 3/7 luminescence, 3 h; percent of clofoctol response, vehicle zero; caspase activation, % (no concentration beside the values); hit rate 0.066% among 330,000;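 active means over half of replicate activation scores above 10%, or exactly half above 10 with the replicate mean above 10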;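 further: wells of about 30 µL received 50 nL stock; many hits fall short of the cut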
T cruzi repl – T. cruzi replication inhibition | hit rate 1.4% among 300,000 | inhibition, % (test concentration not listed) | T. cruzi beta-gal in NIH3T3, luminescence, 90 h;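 active means mean inhibition across valid replicates above about 55%, limit read from the data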;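 further: signal also drops with host cell toxicity which is not excluded here; 0% = plate median of DMSO wells and 100% = zero luminescence signal; higher percent means less beta-gal luminescence so fewer parasites; stock transfer was 50 nL into about 50 µL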
Ecoli rRNA inh – inhibits bacterial ribosomal RNA function over humanized ribosomes. hit rate 1.6% among 350,000. GFP signal change (wild-type ribosome), % (test concentration not listed). E. coli WT GFP vs humanized-ribosome RFP mutants, fluorescence, 24 h; active compounds read low; DMSO median 0, no signal -100;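 active means significant combined selectivity score with lowered wild-type GFP, culture density cut under 30%, mutant RFP and density less affected; inactive means any of these conditions unmet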; further: one replicate is shown; some compounds called inactive have numbers as strong as hits
UCH37 DUB inh – blocks the human deubiquitinase UCH37; purified proteasome/UCH37, Ub-AMC cleavage fluorescence; inhibition, % (test concentration not listed); hit rate 0.33% among 330,000;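 active means mean of two replicates above 20%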;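 further: 0% = compound-free wells with enzyme and 100% = wells lacking proteasome; stock transfer was 100 nL into about 20 µL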
Target sequence (Q9Y5K5 whole entry, looked up): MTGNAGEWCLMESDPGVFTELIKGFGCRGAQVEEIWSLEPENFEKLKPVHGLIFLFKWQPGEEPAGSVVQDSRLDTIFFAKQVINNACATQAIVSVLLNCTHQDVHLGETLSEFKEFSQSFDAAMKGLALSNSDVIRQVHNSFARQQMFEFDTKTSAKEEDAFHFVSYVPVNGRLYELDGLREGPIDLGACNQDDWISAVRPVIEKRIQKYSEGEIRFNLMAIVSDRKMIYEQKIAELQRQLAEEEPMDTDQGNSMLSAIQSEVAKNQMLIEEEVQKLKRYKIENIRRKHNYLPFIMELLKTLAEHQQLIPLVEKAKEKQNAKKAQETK
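assay system = human UCH37 enzyme supplied as purified proteasome complex | amount = proteasome at 0.15 nM in the dispensed enzyme solution | schedule = 30 min compound-proteasome preincubation then 25 min substrate reaction, room temperature | measured by = fluorescence, ex 355 nm, em 460 nm | benchmarks = no-proteasome wells (full inhibition) and compound-free wells (no inhibition)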
AF4-AF9 inh – MLL-AF4/AF9 protein interaction inhibition; AID 651704; inhibition, % at 10 µM; hit rate 0.47% among 350,000; AlphaScreen, biotin-AF4 peptide binding to FLAG-AF9;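 active means every replicate reaching a set inhibition limit, whatever the replicate mean, cut at about 25% in these data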;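 further: 0% = plate neutral control median and 100% = total signal loss; the record names both 10 and 1 µM as test concentration; the first replicate is given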
Target sequence (P42568 whole entry, looked up): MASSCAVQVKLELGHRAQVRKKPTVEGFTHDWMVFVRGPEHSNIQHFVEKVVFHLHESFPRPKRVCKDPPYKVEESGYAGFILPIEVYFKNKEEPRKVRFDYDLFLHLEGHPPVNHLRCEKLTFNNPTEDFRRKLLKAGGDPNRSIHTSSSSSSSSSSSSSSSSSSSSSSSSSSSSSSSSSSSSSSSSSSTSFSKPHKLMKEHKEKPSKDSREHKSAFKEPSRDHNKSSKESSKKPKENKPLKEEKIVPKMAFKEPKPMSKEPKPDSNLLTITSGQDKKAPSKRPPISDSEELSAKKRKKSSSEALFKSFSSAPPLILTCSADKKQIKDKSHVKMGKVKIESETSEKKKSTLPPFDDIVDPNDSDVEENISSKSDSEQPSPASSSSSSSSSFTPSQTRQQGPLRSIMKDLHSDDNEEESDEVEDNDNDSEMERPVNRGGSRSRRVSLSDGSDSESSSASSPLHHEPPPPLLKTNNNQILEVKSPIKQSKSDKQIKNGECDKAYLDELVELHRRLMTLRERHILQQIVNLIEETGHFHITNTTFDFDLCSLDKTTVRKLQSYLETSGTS
Ecoli rRNA inh OD600 – second read-out of Ecoli rRNA inh, no call of its own (marks repeat the call); OD600 change, %; measured here: OD600 growth;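 optical density of the mix in the first replicate; 0 = DMSO median and -100 = no signal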
Ecoli rRNA inh RFP – second read-out of Ecoli rRNA inh, no call of its own (marks repeat the call); RFP signal change, %; measured here: RFP humanized mutant strains;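 first replicate; 0 = DMSO median and -100 = no signal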
Starred values were filed as active, the others as inactive; i = inactive; . = no result given. These rows are one share of the data. The share of hits here may be higher or lower than overall.

Fields: FGF22 binding, E coli growth, Beta cell apopt, A1 inh, T cruzi repl, Ecoli rRNA inh, Ecoli rRNA inh OD600, Ecoli rRNA inh RFP, UCH37 DUB inh, AF4-AF9 inh
#1 CCN(CC)C(=O)C1CCCN(Cc2ccc(N(C)C)cc2)C1 (centres undefined)
 : ., 0.66, -2, 0.6, 71*, 9, 12, -0.2, 4.0, .
#2 CCOc1ccc(NC(=S)N2CCN(c3ccc(N4CCOCC4)nn3)CC2)cc1
 : i, 0.66, -7, 1.0, 1, 1, 6, -2.7, -129, 0.7
#3 CC(=O)c1c(C)n(-c2ccc(C)cc2)c2ccc(O)cc12
 : i, 0.66, -8, 0.1, -8, 12, 3, -0.6, 5.3, -0.3
#4 Cc1ccc(-c2nn(CC(=O)NC(C)c3ccccc3)c(=O)c3ccccc23)cc1 (centres undefined)
 : ., 0.73, 4, 0.8, 14, ., ., ., 1.7, .
#5 CC(=O)c1ccc(N2CCN(C(=O)Nc3ccc(Cl)cc3)CC2)cc1
 : i, 0.67, 9, -0.1, 9, 16, 14, 4.9, -1.9, -3.7
#6 COCCNC(=O)C1CC(c2ccc([N+](=O)[O-])cc2)=NO1 (centres undefined)
 : i, ., -2, -0.4, -7, 30, 16, -3.0, -1.1, -4.7
#7 CN(CCc1ccccc1)C(=O)c1cccc(NC(=O)Cc2cccc(NC(=O)C3CCCN(C(=O)C4CCC4)C3)c2)c1 (centres undefined)
 : i, 0.69, ., ., ., -2, -8, -3.1, 0.4, -1.3
#8 O=C(Nc1ccccc1)Nc1ccc(C(=O)N2CCOCC2)cc1
 : ., 0.71, 25, -8.4, -12, ., ., ., 1.3, .
#9 CC1CCc2nc(NC(=O)c3ccc(N4C(=O)CCC4=O)cc3)sc2C1 (centres undefined)
 : i, 0.7, -5, -0.3, -8, 8, 5, 3.2, -7.0, 0.2
#10 CCCCC1S/C(=N/N=C/c2ccco2)NC1=O (centres undefined)
 : i, ., -7, 0.6, 8, 19, 10, -0.2, ., -3.9
#11 CC(C)NC(=S)NNc1ncnc2sc3c(c12)CC(C)(C)OC3
 : ., 0.66, -5, 0.6, -29, 10, -4, -2.0, 4.5, -4.0
#12 COC(=O)c1c(NC(=O)c2ccoc2C)sc2c1CCC2
 : ., 0.71, 4, 1.0, 1, ., ., ., -139, .
#13 Cc1cc(C)c(S(=O)(=O)NCC2CCC(C(=O)NCc3ccc4c(c3)OCO4)CC2)c(C)c1 (centres undefined)
 : i, 0.68, 4, -0.1, 6, 9, 3, 0.1, 0.0, 0.1
#14 Cn1c(N)c(C(=O)CSc2nnc(N)s2)c(=O)n(C)c1=O
 : i, 0.65, -2, -0.6, ., -2, 2, 1.1, 5.0, 3.3
#15 COc1cccc(/C=C2\SC(=S)N(N3C(=O)CCCC3=O)C2=O)c1
 : i, 0.7, -5, 0.1, -11, 11, 11, 3.1, 8.1, 12
#16 Cc1ccc(C)n1-c1nnc(N2CCC(C(=O)NCCCN3CCN(C)CC3)CC2)s1
 : i, 0.74, -10, 0.0, -19, 10, 0, 5.0, 7.1, 16
#17 O=C(CCNC(=O)c1ccc(Br)cc1)NCc1cccnc1
 : i, 0.62, 2, 0.3, -1, 6, 10, -2.5, 1.2, -1.4
#18 CC(=O)c1ccc(N2CCN(C(=O)CCN3C(=S)NC(C)(C)CC3C)CC2)cc1 (centres undefined)
 : i, 0.66, 0, 0.0, -7, -1, -5, 3.5, 5.1, -0.1
#19 O=C(/C=C/c1ccccc1)Nc1ccc(CN2CCOCC2)cc1
 : i, 0.63, 2, -0.2, 23, 3, -6, -1.5, 3.8, 3.6
#20 O=C(CN1CCCCC1)N/N=C/c1ccc(Cl)cc1Cl
 : i, ., -18, 1.0, -4, 15, 16, 4.2, ., 1.3
#21 O=C(NCc1ccc2c(c1)OCO2)C1CCCN1C(=O)Nc1ccc(F)cc1 (centres undefined)
 : ., 0.69, -3, 1.3, -8, ., ., ., 2.3, .
#22 N#Cc1nc(Nc2cccc(Cl)c2)c2ncn(C3CCCC3)c2n1
 : i, 0.71, 1, -0.7, ., 11, 17, -6.0, -5.2, 0.3
#23 O=c1ccc(N=Nc2ccccc2)ccc1O
 : i, 0.59, 18, -8.7, -11, -4, 10, 2.0, 10, 17
#24 Cc1cccc(NC(=O)c2ccc([N+](=O)[O-])s2)c1C
 : ., 0.68, 105*, 0.5, 66*, 0, -5, -3.1, 2.2, 1.9
#25 O=C(CSc1oc(-c2ccco2)nc1S(=O)(=O)c1ccccc1)NCC1CCCO1 (centres undefined)
 : ., 0.75, -5, -1.3, -5, ., ., ., 1.7, .
#26 Cc1cc(C)cc(NC(=O)c2ccc([N+](=O)[O-])o2)c1
 : i, 0.56, ., ., 20, -53, -83, -14, 5.4, 1.8
#27 CCCn1c(=O)c(C(=O)NNS(=O)(=O)c2ccc(Cl)cc2)c(O)c2ccccc21
 : ., 0.68, -4, 0.7, -2, ., ., ., 1.0, .
#28 COc1ccc(S(=O)(=O)NCCc2c[nH]c3ccccc23)cc1OC
 : i, 0.7, ., -0.2, -12, 1, 1, 3.6, -2.6, 0.5
#29 Cc1cccc(C(=O)OCC(=O)N2CCCC2=O)c1[N+](=O)[O-]
 : i, 0.69, -3, 0.6, 2, 6, 5, -0.7, 5.8, 1.6
#30 CC(C)(C)c1ccc(C(=O)O/N=C(\N)c2ccccc2)cc1
 : i, 0.65, 1, -9.8, 39, -51, -77, -15, 2.6, -0.7

Next part:
Fields: FGF22 binding, E coli growth, Beta cell apopt, A1 inh, T cruzi repl, Ecoli rRNA inh, Ecoli rRNA inh OD600, Ecoli rRNA inh RFP, UCH37 DUB inh, AF4-AF9 inh
#31 COc1ccc(N=C2S/C(=C\c3ccc(Cl)c([N+](=O)[O-])c3)C(=O)N2CCN(C)C)cc1
 : i, ., 0, 0.2, 65*, -53, -67, -13, ., 26*
#32 COc1ccc(OC)c(NC(=O)CSc2nnc(C3CCCCC3)o2)c1
 : i, 0.67, -1, -0.5, -8, -5, -4, -4.0, -0.7, 1.0
#33 CCOc1ccc(CN(CCO)CCO)cc1C(=O)OC
 : ., 0.71, 5, 0.1, -14, ., ., ., 0.7, .
#34 O=C(NCCC1=CCCCC1)C1CCCN(S(=O)(=O)c2cccnc2)C1 (centres undefined)
 : i, 0.73, 2, -0.3, 7, 0, 1, -2.0, 2.1, 0.6
#35 O=S1(=O)C[C@H]2NC(=S)N(c3ccccc3)[C@H]2C1
 : i, 0.72, -6, 1.1, -4, 2, 6, -1.0, -2.1, 0.3
#36 COC(=O)c1sc(NC(=O)c2c(F)cccc2F)c(C#N)c1C
 : ., 0.72, 13, -1.1, 3, -13, -12, -2.7, 5.9, -1.2
#37 O=C(CC1S/C(=N/N=C/C=C/c2ccccc2)NC1=O)Nc1ccc(C(=O)O)cc1 (centres undefined)
 : ., 0.66, -1, -0.1, -11, 3, 3, -3.9, 20*, -1.5
#38 NC(=O)c1oc2ccccc2c1NC(=O)c1ccccc1
 : ., 0.72, -6, 0.1, -2, ., ., ., 1.8, .
#39 COc1ccc(CN2C(=O)c3cccnc3C2=O)cc1S(=O)(=O)N(C)c1cccc(C)c1
 : i, 0.67, -2, -2.0, -15, 7, 8, -0.3, 1.3, 1.5
#40 COc1cc(/C=C2/C(=N)N3N=C(CC(=O)N4CCOCC4)SC3=NC2=O)ccc1OCc1ccccc1F
 : ., 0.68, 4, -2.1, -5, ., ., ., 2.3, .
#41 CCCOc1ccccc1N1C(=O)CC(N(O)c2ccccc2)C1=O (centres undefined)
 : i, 0.74, -2, 0.2, -30, -4, 0, -2.6, 3.7, 0.1
#42 CCOC(=O)N1CCC(NC(=O)c2cc3sccc3n2CC)CC1
 : i, 0.7, -4, -2.4, 7, -6, -12, -2.8, 1.0, 1.2
#43 O=C(Nc1cccc(NC(=O)c2ccco2)c1)c1ccc2c(c1)OCCO2
 : i, 0.68, -2, -2.2, 25, -7, -5, -1.0, 4.0, -2.7
#44 Cc1csc(NC(=O)CSc2nnc(Cc3cccn3C)n2-c2ccc(F)cc2)n1
 : i, 0.77, -3, 0.0, -4, 2, 3, 2.6, 1.8, 3.3
#45 CCN(CCNC(=O)C1CCN(S(=O)(=O)c2c(C)noc2C)CC1)c1ccccc1
 : i, 0.66, 6, 0.9, 12, 9, -1, 0.1, 1.1, -0.3
#46 COc1cc(NC(=O)c2ccco2)ccc1NC(=O)c1ccccc1Cl
 : ., 0.65, -1, 0.1, -21, ., ., ., 5.4, .
#47 Cc1cc(SCCC(=O)O)nc2c(C)cccc12
 : ., 0.72, -7, 0.4, -4, ., ., ., 8.0, .
#48 c1ccc(-c2nccc(-c3ccco3)n2)nc1
 : i, 0.66, -7, -0.8, -17, 5, 2, 0.4, 1.1, 1.7
#49 O=C(NN1CCOCC1)c1cccc2ccccc12
 : ., 0.66, -3, -0.1, -9, ., ., ., -1.6, .
#50 CCCc1c(C(=O)NNc2ccccc2OC)cnn1-c1ccccc1
 : i, 0.68, 1, -1.6, ., -23*, -11*, 1.0*, -0.6, -9.3
#51 COC(=O)C(C#N)c1nc2ccccc2nc1N1CCN(Cc2ccc3c(c2)OCO3)CC1 (centres undefined)
 : ., 0.67, 2, 1.4, 18, ., ., ., -2.0, .
#52 COc1ccc(NS(=O)(=O)c2cc(C(=O)N(C)CCc3ccccn3)ccc2Cl)cc1
 : i, 0.71, ., ., ., 7, 7, 1.8, 3.5, 0.4
#53 CC(C)(C)OC(=O)N1CCC(C(N)=O)CC1
 : i, 0.79, 2, 0.3, -9, -4, 9, 0.3, 1.5, -7.8
#54 Cc1cc(NC(=O)COc2ccc(C)c(C)c2)no1
 : i, 0.68, -1, -0.3, -14, 9, 17, 0.4, -0.2, -2.2
#55 COc1cc(NC(=O)c2ccc3snnc3c2)cc(OC)c1
 : i, 0.63, -4, -1.4, 2, 20, 7, -0.7, 3.7, 0.9
#56 Cc1noc(C)c1N=Nc1ccccc1C(=O)O
 : i, 0.64, -2, -0.1, -12, 10, 13, 2.6, 1.8, -0.9

Part of the list above, as labelled records.
[33] CCOc1ccc(CN(CCO)CCO)cc1C(=O)OC
  FGF22 binding: . | E coli growth: 0.71 | Beta cell apopt: 5 | A1 inh: 0.1 | T cruzi repl: -14 | Ecoli rRNA inh: . | Ecoli rRNA inh OD600: . | Ecoli rRNA inh RFP: . | UCH37 DUB inh: 0.7 | AF4-AF9 inh: .
[41] CCCOc1ccccc1N1C(=O)CC(N(O)c2ccccc2)C1=O (centres undefined)
  FGF22 binding: i | E coli growth: 0.74 | Beta cell apopt: -2 | A1 inh: 0.2 | T cruzi repl: -30 | Ecoli rRNA inh: -4 | Ecoli rRNA inh OD600: 0 | Ecoli rRNA inh RFP: -2.6 | UCH37 DUB inh: 3.7 | AF4-AF9 inh: 0.1
[31] COc1ccc(N=C2S/C(=C\c3ccc(Cl)c([N+](=O)[O-])c3)C(=O)N2CCN(C)C)cc1
  FGF22 binding: i | E coli growth: . | Beta cell apopt: 0 | A1 inh: 0.2 | T cruzi repl: 65* | Ecoli rRNA inh: -53 | Ecoli rRNA inh OD600: -67 | Ecoli rRNA inh RFP: -13 | UCH37 DUB inh: . | AF4-AF9 inh: 26*
